# Compound activity deposited in PubChem by National Center for Advancing Translational Sciences (NCATS).
# gsp ag = activates gsp, the McCune-Albright syndrome mutation | gsp mutant cells, cAMP HTRF, 30 min; control for the full effect not named in the record | Potency, µM (doses to about 76.9 µM), for the others: at the highest dose activation (cAMP increase), actives largely listed as activators | actives 0.13% (n = 340,000) | AID 624287; active = well fitted activation curve with a large enough effect; inconclusive = small, poorly fitted or top-dose-only effect, or another doubt; inactive = no such curve, though single readings can be large or run the other way; cell line not stated here;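 note: phosphodiesterase inhibitor Ro 20-1724 added with compounds to block cAMP breakdown; potency is the fitted concentration of half-maximal effect; nearly all actives have a fitted effect of over 60% in size; about a fifth of the inactives were tested at one dose only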
#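 Cells stably selected in G418 were plated at 2000/well, grown 16-24 hr, then given compounds in DMSO with the PDE inhibitor […] (300 uM solution added) for 30 min at 37C; cAMP was read by HTRF.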
# D2 potentiator = human D2 receptor positive allosteric modulation; P14416; DiscoveRx D2 beta-arrestin cells, luminescence, 90 min; 100% = 57 uM dopamine signal; potentiation, % (no concentration beside the values); actives 0.23% (n = 360,000); active = potentiation of 50% or more; inconclusive = 30% to 50%; inactive = 30% or less;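 note: compound concentration not given in the record; tested on top of an EC20 dose of dopamine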
#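 D2 cells co-treated with compound plus 50 nM dopamine (EC20) for 90 min at 37 deg C to detect potentiation. Beta-arrestin recruitment was read as enzyme-fragment luminescence after 1 h at ambient temperature. Full response was set by 57 uM dopamine.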
# ClpP mod = qHTS Assay for Activators of ClpP. Potency, µM (highest dose often 57.5 µM), for the others: top-dose activity change, negative = active. AID 651965, 2013. actives 1.9% (n = 340,000). purified B. subtilis ClpP, FRET peptide cleavage, 20 min. ATP-dependent Clp protease proteolytic subunit (Bacillus subtilis (strain 168)), P80244; active = well fitted falling curve with a large enough effect; inconclusive = small, poorly fitted or top-dose-only effect; inactive = no such curve, though single readings can be large or run the other way; note: potency is the fitted concentration of half-maximal effect; the source files actives as falling curves though it sought activators and does not explain the sign; nearly all actives have a fitted effect of over 65% in size; many hits overshoot -100%
# Target sequence (P80244 whole entry, looked up): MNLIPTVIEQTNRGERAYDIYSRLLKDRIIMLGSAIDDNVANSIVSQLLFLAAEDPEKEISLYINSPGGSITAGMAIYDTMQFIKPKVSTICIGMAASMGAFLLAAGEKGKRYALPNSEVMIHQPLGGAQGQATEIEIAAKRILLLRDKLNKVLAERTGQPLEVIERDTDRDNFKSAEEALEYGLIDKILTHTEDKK
#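 FRET quenching reversal measured ClpP activation: 10 microg/mL B. subtilis ClpP at pH 8 with the FRET-FV decapeptide, read at 430 nm after 320 nm excitation. The 20-min minus 0-min signal was scaled between DMSO/no-enzyme wells and ADEP (5.8 microM final).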
# gsp antag = antagonizes gsp, the McCune-Albright syndrome mutation; Potency, µM (top dose mostly 76.9 µM), for inactives: top-dose activity change, negative = inhibition, usual class: inhibitors; actives 0.4% (n = 340,000); gsp-mutant cells, cAMP HTRF, 30 min; control for the full effect not named in the record; active = falling curve of any shape with a large fitted effect; inconclusive = falling curve, mostly with a smaller effect; inactive = flat or rising curve; cell line not stated here;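 note: intracellular cAMP measured with PDE inhibitor Ro 20-1724 present during compound exposure; potency is the fitted concentration of half-maximal effect; % is set by controls: 0 for no effect and ±100 for the full control effect; nearly all actives have a fitted effect of over 65% in size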
#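 Cells in G418 medium, seeded 16-24 h, 37C; buffer exchange to DPBS + 1 mM CaCl2, 0.5 mM MgCl2, 0.05% BSA; cpds in DMSO + […] (300 uM stock), 30 min 37C; HTRF cAMP detection.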
# Menin MLL FP FL = inhibitors of human menin-MLL interaction, wild-type MLL peptide. Fluorescence polarization, fluorescein-MLL peptide displacement from menin. FP activity change, % at 61.4 µM. 290,000 tested, under 10 active; inconclusive = falling polarisation curve, or a change in total fluorescence; inactive = total fluorescence flat and polarisation flat or rising; no compound was filed as active; the % refers to the polarisation; negative = inhibition;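 note: % of control where 0% means no effect; inhibitors lower the polarisation; unlabelled MLL peptide was the positive control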
# Sfp inh = blocks B. subtilis Sfp PPTase activity | actives 3.5% (n = 310,000) | Biochemical Sfp PPTase activity, qHTS | Q9F4F7 | Potency, µM, for inactives: max response, negative = inhibition, actives largely listed as inhibitors | AID 1490; active = well fitted inhibition curve with a large enough effect; inconclusive = small, poorly fitted or top-dose-only effect, or another doubt; inactive = no such curve, though single readings can be large or run the other way;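 note: the enzyme is Sfp with the accession as filed and its product quenches rhodamine fluorescence; potency is the fitted concentration of half-maximal effect; 0% = enzyme reaction without inhibitor and -100% = no enzyme wells; top concentration of the series not given in the record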
#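 Sfp 15 nM + cpd, 15 min RT; start w/ rhodamine-CoA 5 uM, BHQ-2-YbbR 12.5 uM (final); 50 mM Hepes pH 7.6, 10 mM MgCl2, 0.01% NP-40, 0.01% BSA; read 525/598 nm at 0 and 30 min.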
# TRPV1 PAM = enhances activation of the human vanilloid receptor TRPV1; actives 0.02% (n = 320,000); TRPV1-expressing cells, Fluo-8 calcium influx, capsaicin EC20 potentiation; host cell line not named in the record; control for the full effect not named in the record; Q8NER1; potentiation, % at 8.33 µM; active means potentiation above 80%; inconclusive means 30% to 80%; inactive means below 30%; note: 0% is about no effect
# Target sequence (Q8NER1 whole entry, looked up): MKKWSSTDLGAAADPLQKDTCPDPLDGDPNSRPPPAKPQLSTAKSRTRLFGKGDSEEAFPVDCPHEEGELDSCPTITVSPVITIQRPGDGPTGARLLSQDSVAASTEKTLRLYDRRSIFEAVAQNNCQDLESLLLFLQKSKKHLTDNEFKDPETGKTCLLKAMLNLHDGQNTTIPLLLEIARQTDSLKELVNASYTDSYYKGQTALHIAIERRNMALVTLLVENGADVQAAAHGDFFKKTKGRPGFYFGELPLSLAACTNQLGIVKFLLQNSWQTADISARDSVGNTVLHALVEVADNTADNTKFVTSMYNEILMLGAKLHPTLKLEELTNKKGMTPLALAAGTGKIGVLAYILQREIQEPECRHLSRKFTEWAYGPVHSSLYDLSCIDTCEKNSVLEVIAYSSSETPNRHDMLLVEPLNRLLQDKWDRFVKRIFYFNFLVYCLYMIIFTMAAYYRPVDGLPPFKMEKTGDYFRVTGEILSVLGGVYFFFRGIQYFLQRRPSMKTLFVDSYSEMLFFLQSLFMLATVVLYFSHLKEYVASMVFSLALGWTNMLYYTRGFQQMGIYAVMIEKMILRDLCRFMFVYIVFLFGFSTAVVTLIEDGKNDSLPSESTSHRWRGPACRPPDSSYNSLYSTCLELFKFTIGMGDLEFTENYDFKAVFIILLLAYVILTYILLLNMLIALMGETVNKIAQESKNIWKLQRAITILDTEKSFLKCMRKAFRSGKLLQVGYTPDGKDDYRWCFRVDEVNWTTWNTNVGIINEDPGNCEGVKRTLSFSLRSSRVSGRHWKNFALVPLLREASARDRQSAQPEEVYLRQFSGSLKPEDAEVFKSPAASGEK
#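 Fluo-8 calcium influx in TRPV1-expressing cells, kinetic read (ex 480/em 520 nm). Compound added and read 3 min for agonist activity, followed by capsaicin at EC20 final and 2 min further read for enhancement.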
# Starred values were filed as active, the others as inactive; ? = inconclusive; nt = not tested or not shown; [ ] = remark or other dose.
SMILES,gsp ag,D2 potentiator,ClpP mod,gsp antag,Menin MLL FP FL,Sfp inh,TRPV1 PAM
O=C(NC(N1CCOCC1)C(Cl)(Cl)Cl)c1ccco1 (stereo unspecified),-14%[15.4 µM],1,nt,14%,0.4,13%,-8
COCCNC(=O)c1cc(S(=O)(=O)N(C)c2ccccc2OC)ccc1C,-12%[15.4 µM],-1,nt,-3%,0.6,-11%,15
Cc1ccc(N(CC(=O)Nc2c(C)cccc2C)S(C)(=O)=O)cc1,-12%[15.4 µM],-18,-0.5%,6%,2.2,14%,3
CN1OC[C@@H]2CN(Cc3ccccc3)[C@H](c3cccc(N4CCOCC4)c3)C[C@@H]21,nt,0,-1.1%,3%,nt,nt,nt
COc1cc(C(=O)OCC(=O)Nc2ccc(F)cc2F)cc(OC)c1OC,?,-1,-15%,2%,-0.4,21%,0
CCN(CC)C(=O)C[n+]1cccc(/C=N/O)c1,5%[15.4 µM],0,nt,4%,3.2,5%,-5
CCN(C(=O)CSc1nnc(SC)s1)c1c(N)n(Cc2ccccc2)c(=O)[nH]c1=O,-26%,-2,-0.7%,14%,nt,nt,19
Cc1cc(NC(=O)NCC(F)(F)F)no1,-1%[15.4 µM],1,0.0%,13%,3.8,15%,0
CC(=O)NS(=O)(=O)c1ccc(NC(=O)c2ccc3c(c2)OCO3)cc1,-36%[inhibitor],-2,-2.7%,4%,-2.5,22%,-48
O=C(NCc1ccccc1)C1=C[C@H](c2ccc(C(F)(F)F)cc2)C[C@H](OCCCCO)O1,nt,-12,-6.8%,3%,nt,nt,nt
CC1CCN(C(=S)c2ccc(-c3ccc(Cl)cc3Cl)o2)CC1,-6%[15.4 µM],-16,1.8%,2%,5.0,50µM*,3
CCCN(CC(=O)Nc1ccccc1C)C(=O)CSc1ccccc1C,-85%[inhibitor],-6,1.7%,-4%,nt,nt,-9
COc1ccc(CCNC(=O)c2ccc(S(=O)(=O)N3CCCCC3)cc2)cc1,4%,-6,-0.5%,4%,nt,nt,11
Cc1ccc(NC(=O)CCN2C(=O)c3ccccc3C2=O)c(C)c1,-8%[15.4 µM],-9,-0.4%,1%,-0.4,13%,3
CC(C)(C)C(=O)Nc1nnc(CCc2ccccc2)s1,-5%[15.4 µM],13,-0.8%,-4%,1.0,-27%,25
FC(F)(F)c1cc(-c2ccco2)nc(-n2cnc3ccccc32)n1,-1%,5,-15%,-6%,3.3,11%,1
Cc1c(NC(=O)COc2ccc3ccc(=O)oc3c2)c(=O)n(-c2ccccc2)n1C,8%[15.4 µM],2,nt,7%,nt,nt,-11
CCS(=O)(=O)N1CCN(C(=O)C(c2ccccc2)c2ccccc2)CC1,-9%,-1,1.3%,0%,-1.6,2%,-23
C=CCn1cc(-c2ccc(Cl)cc2)cc(C#N)c1=O,-2%,-6,32µM*,1%,-1.6,13%,8
O=C(Nc1cccc(-c2cnc3ccccc3n2)c1)C1CC(=O)N(c2ccccc2)C1 (stereo unspecified),6%[15.4 µM],23,1.2%,?,nt,-29%,2
O=C(Nc1cccc(C(=O)N2CCOCC2)c1)c1ccccc1Cl,6%[15.4 µM],-17,-1.2%,9%,nt,2%,3
COc1cccc(N2CCN(S(=O)(=O)c3cccc4nsnc34)CC2)c1,-7%,-5,-3.3%,6%,3.7,4%,15
Cc1cc(=O)nc2c3ccccc3n(C(C)C(=O)Nc3cc(F)ccc3F)n12 (stereo unspecified),?,-11,?,-2%,1.4,-6%,7
CC(C)CCn1c(=O)c2ccccc2n2c(CN3CCCC3)nnc12,13%,-6,nt,-3%,4.5,2%,-7
O=C(NC1CCCC1)C(c1ccncc1)N(C(=O)c1csnn1)c1ccc(F)c(Cl)c1 (stereo unspecified),1%[15.4 µM],-1,nt,1%,3.6,-10%,0
COCCNC(=O)c1ccc(CS(=O)(=O)c2ccc(Cl)cc2)o1,-34%,-1,-0.9%,13%,3.6,9%,19
O/N=C/c1cc(Cl)ccc1OCc1cccc2ccccc12,nt,nt,nt,nt,5.9,-13%,11
COc1cccc(CNC(=O)c2cc(S(=O)(=O)N3CCOCC3)ccc2N2CCCC2)c1,-18%,-6,-5.2%,-1%,nt,nt,8
Cc1c(Cl)c([N+](=O)[O-])nn1CCCC(=O)Nc1cccnc1,-16%,-15,-1.3%,-1%,4.3,10%,-7
COc1ccccc1OCCSc1nc(N)cc(N)n1,-39%[inhibitor],5,-0.2%,-1%,0.9,16%,0
CCn1c(SCC(=O)NNC(=O)c2ccco2)nnc1-c1ccco1,-23%[15.4 µM],1,nt,-17%,0.1,2%,0
Cn1c(N)c(C(=O)COC(=O)c2ccc(OC(F)F)cc2)c(=O)n(C)c1=O,8%,-1,-1.9%,-8%,nt,nt,12
O=C(Oc1ccc2ccc(=O)oc2c1)C1CCCCC1,4%,-15,?,3%,2.6,9%,-12
O=C(NCCN1CCN(C(=O)NC2CCCCC2)CC1)NC1CCCCC1,-4%,-39,-1.5%,2%,2.2,7%,3
Cc1ccc(C)c(-n2c(SCC(=O)N3CCCC3)nnc2-c2ccccn2)c1,-33%[inhibitor],1,-5.4%,-7%,5.2,9%,-21
Cc1onc(-c2c(F)cccc2Cl)c1C(=O)c1ccc(F)cc1,-14%[15.4 µM],-14,0.8%,-9%,4.5,7%,-23
O=C(NC1=NCCS1)C1CC(=O)N(c2ccccc2)C1 (stereo unspecified),7%,10,2.5%,2%,3.5,4%,3
CC1CCN(S(=O)(=O)c2ccc3c(c2)N(CC(=O)NCCCN2CC(C)CC(C)C2)C(=O)CS3)CC1 (stereo unspecified),-21%,-30,-0.2%,-4%,nt,11%,4
Cn1cc(S(=O)(=O)N2CCC3(CC2)OCCO3)c(=O)n(C)c1=O,-30%[inhibitor],4,-1.8%,7%,-1.2,-2%,8
Cc1c([N+](=O)[O-])cc(S(=O)(=O)Nc2ccc(-c3ccc(N4CCCC4)nn3)cc2)cc1[N+](=O)[O-],-21%,?,-0.8%,-34%,nt,nt,?
C/C(=N\N=C1\NC(=O)C(CC(=O)NCc2ccccc2)S1)C(C)C (stereo unspecified),7%[15.4 µM],-1,nt,11%,-0.2,16%,11
Cc1c(C(=O)O)[nH]c2c1C(=O)CC(c1ccc(C(C)(C)C)cc1)C2 (stereo unspecified),-3%,-3,0.0%,?,-2.0,7%,3
COc1cc(C(=O)Nc2ccc3c(c2)OCO3)ccc1OCc1c(C)noc1C,-4%,-3,nt,-5%,-3.8,13%,3
Cc1cc(C(=O)CN2C(=O)C(=O)N(Cc3ccccc3)C2=O)c(C)n1CC1COc2ccccc2O1 (stereo unspecified),25%,-4,nt,2%,8.6,6%,1
NS(=O)(=O)c1ccc(CCNC(=O)/C=C/c2ccc(S(=O)(=O)N3CCOCC3)cc2)cc1,0%,-1,1.0%,5%,nt,nt,nt

# 4 records picked at random from the list so far, as already listed:
SMILES,gsp ag,D2 potentiator,ClpP mod,gsp antag,Menin MLL FP FL,Sfp inh,TRPV1 PAM
Cc1c([N+](=O)[O-])cc(S(=O)(=O)Nc2ccc(-c3ccc(N4CCCC4)nn3)cc2)cc1[N+](=O)[O-],-21%,?,-0.8%,-34%,nt,nt,?
Cc1cc(C(=O)CN2C(=O)C(=O)N(Cc3ccccc3)C2=O)c(C)n1CC1COc2ccccc2O1 (stereo unspecified),25%,-4,nt,2%,8.6,6%,1
CCn1c(SCC(=O)NNC(=O)c2ccco2)nnc1-c1ccco1,-23%[15.4 µM],1,nt,-17%,0.1,2%,0
Cn1c(N)c(C(=O)COC(=O)c2ccc(OC(F)F)cc2)c(=O)n(C)c1=O,8%,-1,-1.9%,-8%,nt,nt,12

# (continued)
SMILES,gsp ag,D2 potentiator,ClpP mod,gsp antag,Menin MLL FP FL,Sfp inh,TRPV1 PAM
CCOc1c(OC(C)=O)ccc(/C=C2\N=C(SCC)SC2=O)c1[N+](=O)[O-],-26%,-8,-1.3%,?,3.0,-68%,-2
O=C(c1cc(-c2ccccc2O)on1)N1CCOCC1,18%[15.4 µM],-8,nt,-1%,3.0,2%,4
COC(=O)C1(C(C[N+](=O)[O-])c2ccco2)C(=O)NCC1c1ccccc1 (stereo unspecified),15%[15.4 µM],-10,nt,13%,9.0,7%,6
O=C1c2ccccc2CC1Sc1nnc(-c2ccccn2)o1 (stereo unspecified),-20%[15.4 µM],23,-28%,6%,2.6,?,?
COC(=O)c1ccc(NC(=O)C2CCCN2C(=O)OCc2ccccc2)cc1 (stereo unspecified),?,-3,-0.7%,-2%,3.5,4%,2
COc1ccc(C(CNC(=O)CCNC(=O)c2ccccc2OC)N2CCCC2)cc1 (stereo unspecified),-46%[inhibitor],-18,-2.9%,9%,nt,nt,3
Cc1cccc2nc(COc3ccc(-c4ccccc4)cc3)cn12,nt,nt,nt,nt,-1.8,45µM*,-6
CN(Cc1nc2ccccc2c(=O)[nH]1)C(=O)C1CC(=O)N(c2cccc3ccccc23)C1 (stereo unspecified),34%,-7,nt,-5%,nt,nt,nt
Cc1cc(C)nc(N2CCC(C(=O)NCCc3ccc(Cl)cc3)CC2)n1,11%,-7,-12%,8%,1.5,21%,10
CCN(C(=O)COC(=O)c1ccccc1SCC(=O)N1CCCC1)C1CCS(=O)(=O)C1 (stereo unspecified),3%,-2,-3.4%,17%,nt,nt,-13
CCOCCCn1c(SCC(=O)NCc2ccc3c(c2)OCO3)nc2ccccc2c1=O,2%,6,nt,-14%,-1.9,17%,-20
COC(=O)C(Cc1ccc(O)cc1)NC(=O)CCc1ccco1 (stereo unspecified),-7%[15.4 µM],2,nt,4%,1.0,18%,2
CC(=O)Nc1ccc(NC(=O)CN(c2cc(Cl)ccc2Cl)S(C)(=O)=O)cc1,6%,-1,-0.4%,-4%,1.8,7%,24
Cc1ccc(C)c(CSCC(=O)NCc2cccs2)c1,-3%,-3,-0.1%,-5%,0.5,13%,-15
COc1cc(OC)c(/C=N/n2c(C)nnc2C)c(OC)c1,-37%[inhibitor],-10,-7.5%,8%,1.0,12%,-14
O=c1[nH]c(CSc2ncc(C(F)(F)F)cc2Cl)nc2cc(C(F)(F)F)ccc12,20%[15.4 µM],-1,nt,6%,8.9,-1%,11
